Screening results deposited in PubChem BioAssay by National Center for Advancing Translational Sciences (NCATS).
VDR inh = blocks the human vitamin D receptor. P11473. VDR-SRC2-3 peptide fluorescence polarization, 2 h. Potency, µM, inactives show max response, negative = inhibition, usual class: inhibitors. 400,000 tested, 0.93% active. AID 504847; active means well fitted inhibition curve with a large enough effect; inconclusive means small, poorly fitted or top-dose-only effect, or another doubt; inactive means no such curve, though single readings can be large or run the other way; further: series mostly up to about 120 µM
Target sequence (P11473 whole entry, looked up): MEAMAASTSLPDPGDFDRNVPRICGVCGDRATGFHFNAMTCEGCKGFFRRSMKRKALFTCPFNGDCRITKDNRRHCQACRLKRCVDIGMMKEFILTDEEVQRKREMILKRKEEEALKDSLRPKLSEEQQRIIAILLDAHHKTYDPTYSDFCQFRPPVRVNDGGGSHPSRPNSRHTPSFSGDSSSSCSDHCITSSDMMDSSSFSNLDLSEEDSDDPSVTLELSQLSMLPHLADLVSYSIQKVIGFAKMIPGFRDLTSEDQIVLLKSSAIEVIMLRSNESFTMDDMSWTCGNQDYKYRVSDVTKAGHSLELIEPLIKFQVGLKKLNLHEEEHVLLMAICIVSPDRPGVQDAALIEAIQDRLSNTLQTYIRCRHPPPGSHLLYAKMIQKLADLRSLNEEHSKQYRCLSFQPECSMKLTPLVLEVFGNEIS
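FP read-out; VDR + SRC2-3 coactivator peptide; 23 nl compound by pintool; 2 h RT incubation; reagents held at 4 deg C, protected from light.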
* marks the source's active call; other numbers are inactive results; ? = inconclusive; & = joins results of further samples; [ ] = dose if it differs, or a comment. On the % scale 0 is the no-effect control and ±100 the full control effect; potency means the concentration at half of the fitted maximal effect. The list is partial (hit frequency here may not be typical).

VDR inh,canonical_smiles
-10.1%,Cc1cc(C)nc(NC(=O)c2cccc([N+](=O)[O-])c2)c1
6.9%,CCOc1ccc(N2C(=O)C(=O)/C(=C(/O)c3ccccc3)C2c2ccccc2[N+](=O)[O-])cc1 (stereo not drawn)
-19.3%,Cc1cccc(C(=O)N2CCCC(N3CCN(c4ccccc4F)CC3)C2)n1 (stereo not drawn)
0.9%,COc1cc(SC)ccc1C(=O)N(CC(=O)Nc1ccccc1Br)Cc1ccco1
15.1%,CCCNS(=O)(=O)c1ccc2c(c1)n(C)c(=O)n2C
-10.7%,O=C1c2ccccc2S(=O)(=O)c2cc(N3CCOCC3)ccc21
-6.8%,COc1cc(NC(=O)CCc2ccccc2)c(C(=O)O)cc1OC
5.1%,O=C(COC(=O)c1ccccc1OCC(=O)Nc1ccc(Br)cc1)Nc1ccccc1
-7.4%,S=C(NCc1ccco1)N1CCN(C/C=C/c2ccccc2)CC1
19.8%,O=C(c1ccc(N2CCOCC2)c([N+](=O)[O-])c1)N1CCN(c2ccccc2)CC1
-2.2%,O=C(CNC(=O)c1ccc(Br)o1)NCc1ccc(F)cc1
11.7%,Cc1ccc2nc(Cl)cc(=O)n2c1
18.5%,Cc1c(Cl)c([N+](=O)[O-])nn1CC(=O)NC(C)C1CC2CCC1C2 (stereo not drawn)
-9.9%,COc1cc(Cn2ccnc2)c(OC)cc1Cn1ccnc1
-15.0%,CCC(=O)c1ccc(OCC(=O)Nc2cccc(S(=O)(=O)N3CCCCCC3)c2)cc1

The closing two entries of the part above come first, to join the parts:
VDR inh,canonical_smiles
-9.9%,COc1cc(Cn2ccnc2)c(OC)cc1Cn1ccnc1
-15.0%,CCC(=O)c1ccc(OCC(=O)Nc2cccc(S(=O)(=O)N3CCCCCC3)c2)cc1
3.4%,Cc1ccc2c(c1)C(=O)CC(c1ccccc1)S2 (stereo not drawn)
1.1%,COC(=O)c1cnc(Oc2c(Cl)cc(N)cc2Cl)cc1C(F)(F)F
-22.3%,Nc1nc(SCC(=O)Nc2ccc(Cl)c(S(=O)(=O)N3CCOCC3)c2)n[nH]1
7.8%,COc1ccc(OC)c(-c2csc(NC(=O)C3=NNC(=O)CC3)n2)c1
2.0%,O=[N+]([O-])c1ccc2c(c1)C(=NO)c1cc(Cl)c(Cl)cc1-2
?,O=C1N/C(=N/S(=O)(=O)c2ccccc2)S/C1=C/c1cccnc1
62.3%[activator],Nc1nonc1C(=O)NCCNCc1cc(Br)ccc1OCc1ccccc1F
-8.7%,O=C(NC1CC2CCCC(C1)N2C(=O)Nc1ccc(Cl)c(C(F)(F)F)c1)C1CC1 (stereo not drawn)
-1.5%,CCOC(=O)CSc1nnc(CNc2ccc(F)cc2)o1
12.0%,CCCC(CCC(=O)OC)(C(=O)OCC)c1csc(N)n1 (stereo not drawn)
-9.0%,COc1ccc(CCNC(=O)C2CC(c3cccc([N+](=O)[O-])c3)=NO2)cc1 (stereo not drawn)
-9.4%,Cc1ccc(-n2c(SCC(=O)Nc3cc(C)on3)nc3c(c2=O)SC(C)C3)cc1 (stereo not drawn)
22.2%,COc1ccc(-c2nnc(NC(=O)c3ccc(S(=O)(=O)N4CCc5ccccc5C4)cc3)o2)cc1
4.3%,CCOc1ccc(NC(=O)c2oc3ccccc3c2NC(=O)Cc2ccc(F)cc2)cc1
3.1%,CCCc1cnc2c(c1SCC(=O)Nc1ccccc1OCC)c(=O)n(C)c(=O)n2C
-12.7%,COc1ccc(NC(=O)CC2CC3CCC2C3)cc1S(=O)(=O)N1CCOCC1 (stereo not drawn)
1.8%,Cc1ccc(NC(=O)N(CCCN2CCOCC2)Cc2cc3cc4c(cc3[nH]c2=O)OCO4)cc1
9.1%,O=C(Cc1cccs1)N1CCN(S(=O)(=O)c2cccc([N+](=O)[O-])c2)CC1
12.1%,Cc1ccc(CN2CCNC(=O)C2CC(=O)N(C)C2CCCCC2)o1 (stereo not drawn)
-5.3%,COc1ccc(OC)c(C2c3[nH]c4ccccc4c3C[C@H]3C(=O)N(CCCOC(C)C)CC(=O)N23)c1 (stereo partly drawn)
13.2%,CCOc1ccccc1C(=O)N(Cc1cc(OC)c(OC)c(OC)c1)c1ccccn1
-16.6%,O=C(c1ccc(Sc2cccc(Cl)c2)c([N+](=O)[O-])c1)N1CCN(c2ccccn2)CC1
31.6µM*,CCOc1cc(CNc2ccc(O)cc2)ccc1OCc1ccc(Cl)cc1Cl
-2.9%,CCCCCCNCc1cccc(Br)c1
-5.1%,C=CC[C@H](CC(=O)NCCO)C(=O)N[C@H](COC(=O)[C@@H](CC=C)Cc1ccc(F)cc1)C(C)(C)C
3.7%,O=C(CN1C(=O)C2(SCC(=O)N2c2ccc(F)c(F)c2)c2ccccc21)Nc1ccccc1F (stereo not drawn)
26.9%,CC(SC(=S)N(C)Cc1cccs1)C(=O)O (stereo not drawn)
-14.8%,CN1CCN(c2ccc([N+](=O)[O-])cc2C(=O)c2ccc(Br)cc2)CC1
-0.9%,Nc1c(Sc2ccccc2)c(=O)[nH]c(=O)n1Cc1ccccc1
5.3%,O=C(Oc1ccc(Cl)c(Cl)c1)C1=CC=CN2CCS(=O)(=O)N=C12
-10.9%,COCCCN1C(=O)C(=O)/C(=C(/O)c2ccc(S(=O)(=O)N3CCOCC3)cc2)C1c1ccc(F)cc1 (stereo not drawn)
0.5%,COc1ccccc1NC(=O)C1=C(C)Nc2ncnn2C1c1ccccc1C (stereo not drawn)
-3.4%,O=C(c1csc(Nc2ccccc2Cl)n1)N1CCCC1
-3.2%,CC(C)c1ccc(NS(=O)(=O)c2ccc3[nH]cc(C(=O)NC4CCCC4)c(=O)c3c2)cc1
25.1µM*,O=C(/C=C/c1ccccc1)c1ccc(O)cc1O
13.4%,Cc1sc(NC(=S)NC(=O)C(C)(C)C)c(C(N)=O)c1C
0.4%,Cc1ccc(S(=O)(=O)N2CCN(C(=O)CC(C)n3nc(C)c(Cl)c3C)CC2)cc1C (stereo not drawn)
3.4%,CCOc1ccc(-n2c(SCC(N)=O)nnc2-c2cccnc2)cc1
21.8%,CCOC(=O)c1c(S(=O)(=O)NCC(=O)N2CCN(c3ccc(OC)cc3)CC2)c(C)n(C)c1C
-0.9%,O=C1CS/C(=N/N=C2CCCC2)N1
-15.7%,CCCCNC(=O)/C=C/c1cccs1
-5.2%,CCCCCCn1c(=O)c(C(=O)N/N=C/c2cccc(F)c2)c(O)c2ccccc21
-6.8%,COc1ccc(CC(=O)Nc2cc(Cl)ccc2C(=O)O)cc1
12.9%,CCOC(=O)C1=CC(=O)CC(C)(C)O1
7.7%,Cc1cccc(NC(=O)C2CCCN2C(=O)Oc2ccccc2)c1C (stereo not drawn)

Copied from above for reference:
VDR inh,canonical_smiles
-2.9%,CCCCCCNCc1cccc(Br)c1
-5.1%,C=CC[C@H](CC(=O)NCCO)C(=O)N[C@H](COC(=O)[C@@H](CC=C)Cc1ccc(F)cc1)C(C)(C)C
3.7%,O=C(CN1C(=O)C2(SCC(=O)N2c2ccc(F)c(F)c2)c2ccccc21)Nc1ccccc1F (stereo not drawn)
26.9%,CC(SC(=S)N(C)Cc1cccs1)C(=O)O (stereo not drawn)
-14.8%,CN1CCN(c2ccc([N+](=O)[O-])cc2C(=O)c2ccc(Br)cc2)CC1

Given field by field: part of the list above.
CCCCCCn1c(=O)c(C(=O)N/N=C/c2cccc(F)c2)c(O)c2ccccc21
  VDR inh: -5.2%

COc1ccc(CC(=O)Nc2cc(Cl)ccc2C(=O)O)cc1
  VDR inh: -6.8%

CCOC(=O)C1=CC(=O)CC(C)(C)O1
  VDR inh: 12.9%

Next part.
VDR inh,canonical_smiles
-5.4%,O=Cc1ccc(-c2ccc([N+](=O)[O-])cc2Cl)o1
-18.6%,O=C(NCc1ccccc1)C1CCN(S(=O)(=O)c2ccc(Cl)cc2)CC1
-1.5%,C[C@@H](C(=O)OCC(=O)c1ccccc1)N1C(=O)C2CCCCC2C1=O (stereo partly drawn)
0.1%,COc1ccc(-c2sc3ccc(OC)cc3c2-c2ccc(OC)c(F)c2)cc1
2.5%,Cc1ccc(CS(=O)(=O)CCC(=O)NCc2ccccc2Cl)cc1
14.3%,Cc1ccc(C(=O)N/C(=C/c2cccs2)C(=O)NCC2CCCO2)cc1 (stereo not drawn)
-0.1%,O=C(CCN1N=C(c2ccccc2)CCC1=O)NC1CCCC1
12.4%,CN(C)C(=O)c1ccc(S(=O)(=O)NCc2ccc(Cl)cc2)s1
0.3%,O=C(Nc1c(-c2ccccc2)nc2sccn12)c1ccccc1
9.9%,O=C(O)c1ccc(/C=N/NC(=O)C(O)(c2ccccc2)c2ccccc2)cc1
14.3%,CCOc1ccc(NC(=O)CCS(=O)(=O)c2ccc3c(c2)CCCN3C(=O)CC)cc1
3.8%,Cc1cc([N+](=O)[O-])nn1CC(=O)Nc1ccc(F)cc1
1.5%,Cc1ccc(S(=O)(=O)NCCN=C(CN2CCOCC2)NS(=O)(=O)c2ccc(C)cc2)cc1
1.7%,CC(=O)Nc1cccc(NC(=S)Nc2cccc3ccccc23)c1
-4.4%,Cc1ccc(C(=O)N2CCN(C(=O)c3ccco3)CC2)cc1NC(=O)c1ccco1
-16.2%,Cc1cccc(S(=O)(=O)NNC(=O)Cc2cccn2C)c1
-2.8%,CC1C2CC(C(S(=O)(=O)N3CCOCC3)C2=O)C1(C)C (stereo not drawn)
-18.9%,Cc1ccc(S(=O)(=O)N2CCCCC2CCNC(=O)C(=O)NC2CC2)cc1 (stereo not drawn)
-22.0%,CS(=O)(=O)C1=NSC2=NC(=O)/C(=C\c3cccn3-c3ccccc3Cl)C(=N)N21
-7.5%,Cc1cc(O)c(C(C[N+](=O)[O-])c2ccc(Cl)cc2Cl)c(=O)o1 (stereo not drawn)
17.2%,COc1ccc(NC(=O)CN2CCc3ccccc3C2)cc1OC
15.8%,Cc1oc(-c2ccccc2F)nc1CS(=O)CC(=O)NCCN1CCCCC1C (stereo not drawn)
-7.1%,COc1cccc(NC(=O)CN(C)C(C)C(=O)Nc2ccc(C#N)cc2)c1 (stereo not drawn)
-19.1%,CCc1ccc(NC(=O)C2CCCN(S(=O)(=O)c3c(C)noc3/C=C/N(C)C)C2)cc1 (stereo not drawn)
-12.7%,CCOc1ccc(NC(=O)Cn2c(=O)oc3cc(Cl)ccc32)cc1
-28.3%,C=CCNC(=O)c1ccc2nc(-c3ccco3)c(-c3ccco3)nc2c1
-9.5%,O=c1oc2ccccc2c(O)c1/C=C1\C=Nc2ccccc21
3.9%,COc1cc(OC)c(C#N)c(S(=O)(=O)Cc2ccccc2)c1
2.4%,COCCCNC(=O)C(=O)Nc1cc2c3c(c1)CCC(=O)N3CCC2
7.7%,COc1ccc(S(=O)(=O)NCCSCc2ccco2)cc1C
-3.8%,CCn1cc(CN2CCc3c([nH]c4ccccc34)C2c2cccc(OC)c2)c(C)n1 (stereo not drawn)
2.0%,C=CCOc1cccc(C2NC(=O)c3ccccc3O2)c1 (stereo not drawn)
-1.3%,Cc1ccc(SCC(=O)Nc2ccc(C(=O)Nc3ccc(O)cc3)cc2)cc1
-12.7%,Cc1ccc(SC(C)C(=O)NCc2ccc(F)cc2)cc1 (stereo not drawn)
4.0%,O=C(CSc1nnnn1C1CCCC1)Nc1ccc(F)cc1
5.3%,CC1Cc2cc(S(=O)(=O)N3CCC(C(=O)N(C)Cc4ccccc4)CC3)ccc2N1C(=O)C1CC1 (stereo not drawn)
-5.0%,Cc1[nH]n2c(=O)c3c(nc2c1-c1ccccc1)CCC3
11.1%,COc1cc(Cl)c(C)cc1NC(=O)COC(=O)C1CC1C (stereo not drawn)
16.4%,CCC(=O)Nc1ccc(C(=O)Nc2ccc(Br)cc2F)cc1
-18.6%,CC1c2cc3c(cc2CCN1C(=O)c1ccc(Br)cc1)OCCCO3 (stereo not drawn)
-12.5%,Cc1nc2ccc(S(=O)(=O)NC(C(=O)N3CCn4c3nc3ccccc34)C(C)C)cc2s1 (stereo not drawn)
-5.9%,[O-]C1=N/[N+](=C/c2ccc(Cl)cc2)CC1
-11.9%,CCCNC(=O)Nc1nc(CC(=O)OCC)cs1
11.5%,COc1ccccc1CNC(=O)CCc1c(C)c2cc3c(C)c(C)oc3cc2oc1=O
1.6%&8.4%,CCCCCCCCCCCCCCCCCCOC[C@H](COP(=O)([O-])OCC[N+](C)(C)C)OC(C)=O
11.2%,COc1ccccc1CNC(=O)c1ccc(-c2nc(CS(=O)c3ccc(C)cc3)c(C)o2)cc1 (stereo not drawn)
0.7%,Cc1[nH]n(-c2ccc(Cl)cc2)c(=O)c1C=Nc1ccc(S(=O)(=O)N2CCOCC2)cc1
-4.4%,CCC(NS(=O)(=O)c1ccc(OC)cc1)C(=O)NCCC1=CCCCC1 (stereo not drawn)
-28.5%,O=C(NC1CC1)C1=C[C@@H](c2coc3ccccc3c2=O)C[C@@H](OCc2ccc(CO)cc2)O1
-14.0%,Cc1ccc(NC(=O)CCn2ccc([N+](=O)[O-])n2)nc1
8.2%,Cc1ccc(S(=O)(=O)Nc2cccc(-c3ccc(N4CCCC4)nn3)c2)c(C)c1
-1.2%,COc1ccccc1NC(=O)CSc1nnc(Cc2ccccc2)o1
-15.9%,O=C(NCCCN1CCCCC1)C1CCCN(c2ncnc3c2nc2n3CCCCC2)C1 (stereo not drawn)
-4.1%,CCc1cccc(C)c1NC(=O)CCCC(=O)O
-12.3%,COc1cc(C(=O)Nc2cc(C(F)(F)F)ccc2-n2cncn2)cc(OC)c1OC
5.0%,CCOC(=O)C1=C(C)NC2=C(C(=O)CCC2)C1c1cccnc1 (stereo not drawn)
8.6%,O=C(c1ccc(S(=O)(=O)N2CCOCC2)cc1)N1CCN(c2ccc(F)cc2)CC1
-1.6%,C/C(=N\NC(=S)Nc1cccc(C)c1)c1ccco1
-2.4%,O=C(CSc1nncn1-c1ccccc1)Nc1ccc(F)cc1F
